UUG fidelity: modulators of start codon recognition fidelity in yeast. S. cerevisiae UUG-firefly luciferase reporter, luminescence/redox ratio. 350,000 compounds, 0.13% hits. activity score, % at 18.7 µM;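 active means replicate mean at a twofold rise or more, about +100% in these data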;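 further: firefly luciferase made from a UUG start codon reports start codon fidelity; reporter light over untreated wells divided by growth signal over untreated wells; some hits fall short of that in this replicate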
HIV Env fusion: inhibitors of HIV Env-mediated cell fusion | HeLa-JRFL Env/CEM21 cell fusion, luciferase | inhibition, % at 12.3 µM | 360,000 compounds, 1.1% hits;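 active means mean replicate inhibition score of at least 50 and every replicate individually at or above 50; inconclusive means only one of the two criteria met; inactive means mean below 50 and not all replicates reaching 50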;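 further: 0% = plate neutral controls and 100% = maraviroc near 300 nM; one replicate is shown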
MT1-MMP act inh: inhibitors of human MT1-MMP activation; AID 651647; GFP/RFP ratio change, % at 20 µM; HT1080 RFP-PRO-GFP cells, GFP/RFP ratio fluorescence, overnight; percent of plate control window, DMSO zero; 360,000 compounds, 0.061% hits; P50281;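 active means GFP/RFP ratio change of at least 30% with cell ATP level not reduced by more than half and red fluorescence within 50% of control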; further: strong numbers were not always called active
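Assay system: HT1080 RFP-PRO-GFP cells. Benchmarks: DMSO vehicle wells and RFP-L50D-GFP reporter cell wells. Times: overnight cell settling, then overnight compound exposure, 37 °C, 5% CO2. Compound: 20 µM single dose, 1% DMSO. Read-out basis: GFP/RFP fluorescence ratio.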
PABP FP inh: PABP-poly(A) binding inhibition. P11940. PABP-poly(A) RNA binding, fluorescence polarization. inhibition, % at 35 µM. 290,000 compounds, 1% hits;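 active means 50% or more with normal probe brightness, or confirmed in later tests; inconclusive means above 50% with abnormal brightness, or retests that disagree; inactive means below 50% or failed in later tests; about a fifth of its hits are not listed in these tables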;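 further: calls also rest on retests at 20 µM and on dose response follow-up; controls were probe without protein and protein plus probe with vehicle; some compounds called inactive have numbers as strong as hits; many hits fall short of the cut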
Target sequence (P11940 whole entry, looked up): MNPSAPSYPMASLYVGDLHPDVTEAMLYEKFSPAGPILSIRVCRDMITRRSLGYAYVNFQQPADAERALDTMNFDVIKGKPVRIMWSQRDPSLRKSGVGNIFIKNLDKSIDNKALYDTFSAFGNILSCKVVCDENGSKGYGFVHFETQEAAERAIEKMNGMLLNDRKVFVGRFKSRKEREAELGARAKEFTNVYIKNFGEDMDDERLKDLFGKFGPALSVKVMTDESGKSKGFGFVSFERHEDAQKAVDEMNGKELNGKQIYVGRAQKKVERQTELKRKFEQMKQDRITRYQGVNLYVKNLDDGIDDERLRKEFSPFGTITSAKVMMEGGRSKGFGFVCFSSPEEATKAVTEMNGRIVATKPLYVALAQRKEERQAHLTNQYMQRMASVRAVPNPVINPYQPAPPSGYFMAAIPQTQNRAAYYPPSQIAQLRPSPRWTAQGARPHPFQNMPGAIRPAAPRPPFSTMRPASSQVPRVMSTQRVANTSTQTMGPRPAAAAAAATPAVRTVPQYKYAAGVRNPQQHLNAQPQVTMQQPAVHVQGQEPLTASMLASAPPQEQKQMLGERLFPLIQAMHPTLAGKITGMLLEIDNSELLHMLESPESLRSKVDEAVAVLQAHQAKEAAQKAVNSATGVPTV
CSC inhib: cancer stem cell inhibition; cancer stem cell-like cells viability, luminescence; inhibition, % at 7.5 µM; 300,000 compounds, 1.1% hits; AID 2717;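 active means mean at 75% or more and at least half the replicates too; inconclusive means mean and replicates disagree; tested in HMLE shEcad cells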;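 further: 0% = median of negative and 100% = median of positive control wells; the first replicate is given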
Rce1 inhib: inhibitors of yeast Ras-converting enzyme; Q03530; yeast membranes, quenched prenylated peptide cleavage fluorescence; calls only; 290,000 compounds, 0.27% hits; AID 2563;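 active means fall in fluorescence gain of 50% or more versus controls, with final raw signal at or below 3038400; inconclusive means same 50% fall but final raw signal above 3038400; inactive means fall in fluorescence gain under 50%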;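 further: plate controls were neutral control wells for no effect and wells lacking membranes for full effect; tested at 10 µM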
Target sequence (Q03530 whole entry, looked up): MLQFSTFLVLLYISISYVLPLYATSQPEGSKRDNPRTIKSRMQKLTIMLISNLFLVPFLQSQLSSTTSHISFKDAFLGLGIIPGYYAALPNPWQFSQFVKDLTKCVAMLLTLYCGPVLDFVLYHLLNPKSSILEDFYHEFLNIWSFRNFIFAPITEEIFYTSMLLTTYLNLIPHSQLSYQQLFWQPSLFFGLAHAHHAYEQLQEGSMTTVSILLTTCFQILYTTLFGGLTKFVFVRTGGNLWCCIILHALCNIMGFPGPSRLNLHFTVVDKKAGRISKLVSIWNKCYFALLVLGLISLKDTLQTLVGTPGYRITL
eIF4H FP inh: inhibitors of RNA binding by human eIF4H; Q15056; eIF4H fluorescence polarization binding assay; inhibition, % at 35 µM; 290,000 compounds, 0.94% hits;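 active means 50% or more with normal probe brightness, or confirmed in later tests; inconclusive means above 50% with abnormal brightness, or retests that disagree; inactive means below 50% or failed in later tests; about a fifth of its hits are not listed in these tables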;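 further: calls also rest on retests at 20 µM and on dose response follow-up; 0% = protein and probe with vehicle and 100% = probe without protein; strong numbers were not always called active; many hits fall short of the cut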
MT1-MMP act inh RFP: recorded beside MT1-MMP act inh, whose call it bears; RFP signal change, %; measured here: RFP expression control read;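 0 = vehicle wells; hits needed this value within 50% of zero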
Active calls of the source: *; i = inactive; ? = inconclusive; / = no result given; & = joins results of further samples; [ ] = remark or other dose. An excerpt; count on the stated rates, not on these rows.

The first 3 records (preview)
SMILES	UUG fidelity	HIV Env fusion	MT1-MMP act inh	MT1-MMP act inh RFP	PABP FP inh	CSC inhib	Rce1 inhib	eIF4H FP inh
COc1ccc(C(=O)N2CCNC(=O)C2CC(=O)Nc2cc(Cl)ccc2OC)cc1 (stereo not drawn)	6	0	1	4	-1	-17	i	-12
O=C(NC1CCS(=O)(=O)C1)c1cn(-c2ccccc2)nc1-c1ccccc1 (stereo not drawn)	-12	/	2	1	-6	-10	i	-7
COc1ccccc1CNC(=O)C1CCN(S(=O)(=O)c2ccc3c(c2)OCCCO3)CC1	-20	-10	8	0	10	-1	i	4

The list itself, repeating the preview:
SMILES	UUG fidelity	HIV Env fusion	MT1-MMP act inh	MT1-MMP act inh RFP	PABP FP inh	CSC inhib	Rce1 inhib	eIF4H FP inh
COc1ccc(C(=O)N2CCNC(=O)C2CC(=O)Nc2cc(Cl)ccc2OC)cc1 (stereo not drawn)	6	0	1	4	-1	-17	i	-12
O=C(NC1CCS(=O)(=O)C1)c1cn(-c2ccccc2)nc1-c1ccccc1 (stereo not drawn)	-12	/	2	1	-6	-10	i	-7
COc1ccccc1CNC(=O)C1CCN(S(=O)(=O)c2ccc3c(c2)OCCCO3)CC1	-20	-10	8	0	10	-1	i	4
COC(=O)CC1NCCNC1=O (stereo not drawn)	-16	20	0	0	-2	-11	i	-7
CC(C)c1nnc(NC(=O)c2nc(S(=O)(=O)Cc3ccccc3F)ncc2Cl)s1	/	-108	/	/	-3	102*	i	-16
Cc1ccc(/C(O)=C2/C(=O)C(=O)N(c3ccccn3)C2c2ccc([N+](=O)[O-])cc2)cc1 (stereo not drawn)	-6	-11	-1	-2	9	-2	i	-10
COc1ccccc1CCC(=O)OCC(=O)Nc1cc(S(=O)(=O)N2CCOCC2)ccc1C	/	-6	0	7	/	-6	i	/
Cc1ccc(-n2nc3c(c2NC(=O)CC(C)C)CS(=O)C3)cc1 (stereo not drawn)	-9	0	-2	6	-10	-4	i	-10
O=C1c2ccccc2C(=O)C1(CO)c1ccccc1	/	-8	1	6	-15	21	i	-12
NC(=O)C1CCN(S(=O)(=O)c2cccc(C(=O)O)c2)CC1	-2	/	-1	-6	14	3	i	0
Cc1cc(OCC(O)CN2CCCC2)ccc1C(C)C (stereo not drawn)	6	-3	3	6	10	-10	i	-6
CS(=O)(=O)N1CCN=C1SCc1cccc(F)c1	-14	-24	2	1	-1	-3	i	-9
COc1ccccc1-n1c(C)nc2cc(C(=O)NCC3CCCO3)ccc21 (stereo not drawn)	-22	3	7	6	/	2	i	/
CN(C)C(=O)CCc1ccc2c3c([nH]c2c1)[C@]1(CCC2CCCC2)[C@@H](C(=O)N2CCOCC2)C[C@H](CC(=O)NCCc2ccccn2)C(=O)N1CC3	23	-18	3	6	/	/	/	/
COc1ccc2sc3c(=O)[nH]c4ccccc4c3c2c1	5	/	-7	-5	6	-6	i	4
COc1cccc(N=Cc2ccc(O)cc2O)c1	20	/	-54	9	?	-9	i	?
CC(=O)c1ccccc1NS(=O)(=O)c1ccccc1Cl	/	1	1	4	3	-1	i	-4
O=C(NC(=S)Nc1ccccc1)c1cc(-c2ccccc2)nc2ccccc12	-11	-45	-1	-5	-2	26	i	8
Cc1ccccc1NC(=O)c1c(C)nn(-c2ccccc2)c1Cl	-11	-12	1	1	-9	9	i	-10
Cc1ccnc(NS(=O)(=O)c2ccc(NC(=O)c3ccc([N+](=O)[O-])s3)cc2)n1	/	2	-3	-5	5	27	i	2
CCNC(=O)COC(=O)/C=C/c1c(C)nn(Cc2cccc(OC)c2)c1Cl	1	-4	4	1	-2	-6	i	2
Cc1nc2ccccn2c1C(=O)NNC(=S)Nc1ccc(Cl)cc1	-32	-10	20	3	1	-2	i	3
Cc1oc(C)c2c(=O)ccc3c(c12)OC(N)=C(C#N)C3c1ccc(F)cc1 (stereo not drawn)	/	/	-141	12	112*	-4	i	70*
O=C(CN1C(=O)c2cccc3cccc(c23)C1=O)NCCN1CCOCC1	/	-15	3	3	-2	-6	i	1
Cc1ccc(S(=O)(=O)N(C)C)cc1NC(=O)C1Cc2ccccc2CN1C(=O)c1ccco1 (stereo not drawn)	-10	-43	-5	2	11	-2	i	10
The results go on.
SMILES	UUG fidelity	HIV Env fusion	MT1-MMP act inh	MT1-MMP act inh RFP	PABP FP inh	CSC inhib	Rce1 inhib	eIF4H FP inh
O=C(O)CC(c1cccc(O)c1)N1Cc2ccccc2C1=O (stereo not drawn)	-2	6	2	2	-10	-2	i	-4
CS(=O)(=O)NN1C(=O)c2ccccc2NC1c1cc2ccccc2nc1Cl (stereo not drawn)	/	-13	4	8	-6	-14	i	-4
CCC1CCCCN1CCCNC(=O)CNC(=O)Cn1ccc2ccccc2c1=O (stereo not drawn)	-10	-67	5	1	16	-1	i	11
Cn1c(CNC(=O)C(Cc2ccccc2)NC(=O)c2cccc(F)c2)cc(=O)n(C)c1=O (stereo not drawn)	-10	2	1	3	0	-3	i	-10
CCOc1cc(C2C(C(=O)N3CCOCC3)=C(C)NC3=C2C(=O)CCC3)ccc1O (stereo not drawn)	-11	/	2	6	10	-9	i	8
CCC(CC)NC(=O)CSc1nnc(-c2c[nH]c3ccccc23)o1	/	22	1	4	-10	-7	i	-1
COc1ccc(C2=Nc3ccc(Br)cc3C(c3ccccc3)N2CC(=O)NN)cc1 (stereo not drawn)	-18	-42	4	3	-1	6	i	-9
Cc1c(N2C(=O)/C(=C\c3cccc4ccccc34)SC2=S)c(=O)n(-c2ccccc2)n1C	-18	-25	-2	-6	3	-3	i	-11
Cc1ccc(C(=O)OCc2nnc(-c3ccccc3)o2)s1	-7	37	-1	1	/	-3	i	/
COc1ccc(CN(C)CC(O)COC(c2ccccc2)c2ccccc2)c(OC)c1OC (stereo not drawn)	-5	2	-3	-4	6	-1	i	-11
Cc1ccc(N2C(N)=C(C#N)C(c3cccnc3)C3=C2CC(C)(C)CC3=O)cc1 (stereo not drawn)	-16	/	-3	4	10	-5	i	-6
CN1C(=S)NC(C)(C)CC1(C)c1ccc(O)cc1O (stereo not drawn)	-23	/	0	0	0	3	i	0
Cc1cc(N2CCN(C)CC2)nc2ccc(NC(=O)CCC(=O)NCCC3=CCCCC3)cc12	-8	-20	4	-3	/	/	/	/
c1ccc2[nH]c(SCc3cscn3)nc2c1	-15	-61	7	5	9	-7	i	-6
CC(C)CCNC(=O)NC(=O)COC(=O)/C=C/c1cccc([N+](=O)[O-])c1	-8	-1	4	3	9	2	i	-5
O=C(CSc1nnc(-c2ccncc2)n1-c1ccccc1Cl)Nc1ccc(C(=O)O)cc1	/	-3	0	0	10	-6	i	-12
CC1(C)C(=O)Nc2ccccc2N1C(=O)CN1C(=O)C(=O)N(C2CCCC2)C1=O	/	4	1	7	-13	-11	i	4
CCSc1ncc(Cl)c(C(=O)Nc2ccc(S(N)(=O)=O)cc2)n1	11	11	-2	-5	2	13	i	6
CCC(C)(C(=O)NC1CCCCC1)N(Cc1ccco1)C(=O)CC1NC(=O)NC1=O (stereo not drawn)	-4	-26	-5	-1	22	2	i	-1
O=C(COc1ccccc1)Nc1ccccc1C(=O)NC1CC1	0	-15	0	-1	/	-11	i	/
CN=C(Nc1ccccc1)SC1CC(=O)N(c2ccc(C(=O)OC)cc2)C1=O (stereo not drawn)	11	-43	3	-5	1	-6	i	3
O=C(Nc1ccccc1)c1cc2c(=O)c3ccccc3oc2nc1C(F)(F)F	-17	-33	5	4	4	-6	i	-14
Cc1ccc(C(=O)N(CC(=O)NC2CCCC2)c2ccccc2C)s1	/	2	1	-1	4	-5	i	10
O=C1/C(=C\c2cc(Br)cc(Br)c2O)SC(=S)N1Cc1ccccc1	-10	/	6	51	20	78*	i	24
COc1ccc(NC(=O)CN(C)C(=O)CCNC(=O)Nc2ccccc2)cc1	-21	-10	-2	7	/	/	/	/
Next part
SMILES	UUG fidelity	HIV Env fusion	MT1-MMP act inh	MT1-MMP act inh RFP	PABP FP inh	CSC inhib	Rce1 inhib	eIF4H FP inh
OC(CNCc1ccccc1C(F)(F)F)C(F)(F)F (stereo not drawn)	/	-1	-1	4	-2	-4	i	-1
CCN(CC)S(=O)(=O)c1cccc(-c2nnc(SC(C)C(N)=O)n2CCc2ccccc2)c1 (stereo not drawn)	-4	/	-5	-5	9	-2	i	-8
COc1ccccc1N1CCN(C(=O)c2nn(C)c3c2CS(=O)(=O)c2ccccc2-3)CC1	-7	0	1	4	/	5	i	/
COc1cc(NC(=O)c2cnc(N)s2)cc(C(=O)Nc2cccc(C(F)(F)F)c2)c1	-12	16&16	9	-4	3	50	i	-13
Cc1noc(C)c1NC(=O)Nc1ccc2c(c1)CC(=O)N([C@H](C)CO)C[C@@H](C)[C@H](CN(C)CC1CCCCC1)O2	6&-10	-10[16.7 µM]	5	5	/	-23	/	/
Cc1c(NC(=S)NC(=O)c2sc3ccccc3c2Cl)cccc1C(=O)O	-23	-76	1	-3	0	-6	i	-7
Cc1cc(C)n(-c2nc(NCC(C)O)c3c4c(sc3n2)COC(C)(C)C4)n1 (stereo not drawn)	-10	-42	9	5	-12	3	i	-6
N#Cc1ccccc1NC(=S)NC(=O)c1cccs1	-15	-8	-2	2	-8	-7	i	-23
O=C1C(Cc2ccccc2)Nc2ncnc(N3CCCCC3)c2N1Cc1ccc(Br)cc1 (stereo not drawn)	-11&-13	2&-7	-3&-1	-1&-6	/	/	/	/
O=C(CCc1nc2ccccc2s1)N1CCN(S(=O)(=O)c2cccs2)CC1	-7	-39	-3	-2	8	-10	i	6
CCOC(NC(=O)c1ccccc1)C(NC(=O)c1ccccc1)OCC (stereo not drawn)	-3	-37	8	5	-3	7	i	-3
CNC(=O)Cn1c(C)cc(=O)c2cccc(OC)c21	-16	7	1	5	-5	-8	i	-1
CC1CCCC(NC(=O)COC(=O)COc2cccc(F)c2)C1C (stereo not drawn)	-3	-15	0	1	/	-19	/	/
CCOC(=O)N1CCC(N(C(=O)Nc2ccc(CC)cc2)C(C)CC)CC1 (stereo not drawn)	-14	-52	3	-2	1	14	i	6
CCC(=O)Nc1ccc2c(c1)ncn2C	1	-2	-9	-1	-13	-9	i	1
O=C(Nc1ccccc1-c1ccccc1)c1cccs1	/	23	0	0	-4	/	i	5
COc1ccccc1NC(=O)C1CCCN1C(=O)NCc1ccccc1 (stereo not drawn)	-5	-124	1	4	4	-6	i	-4
O=C(O)C1CC=CCC1C(=O)Nc1ccccc1Cl (stereo not drawn)	-2	/	6	0	11	-2	i	-3
CC(=O)c1ccc(Cc2cnc(N)s2)cc1	-18	/	0	4	6	8	i	6
Cc1cc(OCC(=O)N2CCN(c3ccc(F)cc3)CC2)c2c(C)cc(=O)oc2c1	1	-4	-5	-6	2	34	i	-16
CCn1c(SCC(=O)Nc2ccccc2)nc2c(c1=O)SCC2	-35	2	3	5	/	/	/	/
CCOc1cc(/C=C/C(=O)OCC(=O)NC2CCS(=O)(=O)C2)ccc1OCc1ccccc1 (stereo not drawn)	/	16	4	-1	-2	-3	i	0
CCCCSc1nnc(-c2ccc(C)cc2)o1	6	-226	-2	-1	-6	-4	i	3
CCCCn1c(SCC(=O)NC2CCS(=O)(=O)C2)nnc1-c1ccc(OC)cc1 (stereo not drawn)	-2	/	2	0	/	-5	i	/
COc1ccccc1NC(=O)Nc1ccnn1C1CCN(C(=O)C2CCOC2)CC1 (stereo not drawn)	-21	-16	1	3	/	/	/	/
O=C(COC(=O)c1cnccn1)NCc1ccccc1Cl	-36	16	1	4	/	/	/	/
Cc1ccc(NC(=S)NNC(=O)c2nn(C)c(C)c2Cl)cc1	-11	-123	1	5	-8	-8	i	1

Source: PubChem BioAssay (several laboratories)
